# A1 inh – inhibitors of the anti-apoptotic protein A1, read as caspase activation; MEF A1-2A-BIM cells, Caspase-Glo 3/7 luminescence, 3 h; percent of clofoctol response, vehicle zero; caspase activation, % (test concentration not listed); 330,000 tested, 0.066% active; AID 2462;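 active means over half of replicate activation scores above 10%, or exactly half above 10 with the replicate mean above 10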;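 further: wells of about 30 µL received 50 nL stock; many hits fall short of the cut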
# rRNA inh HTS – inhibits bacterial ribosomal RNA function over humanized ribosomes | E. coli WT GFP vs humanized-ribosome RFP mutants, fluorescence, 24 h; hits give low values; DMSO median 0, no signal -100 | GFP signal change (wild-type ribosome), % (test concentration not listed) | 350,000 tested, 1.6% active;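 active means significant combined selectivity score with lowered wild-type GFP, culture density cut under 30%, mutant RFP and density less affected; inactive means any of these conditions unmet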; further: one replicate is shown; some compounds called inactive have numbers as strong as hits
# B2AR ag – activates human beta-2 adrenergic receptor causing internalization. Am2.2-beta2AR cells, FAP receptor internalization, flow cytometry; reference of the scale not given here. response, % (concentration not given with the values). 340,000 tested, 0.43% active;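 active means response above a set limit, near 3 SD of response in nonfluorescent compounds, cut at about 42% in these data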;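 further: stock transfer was 100 nL into about 11 µL; a reference agonist was the positive control; negative values mostly stem from fluorescent compounds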
# Target sequence (P07550 whole entry, looked up): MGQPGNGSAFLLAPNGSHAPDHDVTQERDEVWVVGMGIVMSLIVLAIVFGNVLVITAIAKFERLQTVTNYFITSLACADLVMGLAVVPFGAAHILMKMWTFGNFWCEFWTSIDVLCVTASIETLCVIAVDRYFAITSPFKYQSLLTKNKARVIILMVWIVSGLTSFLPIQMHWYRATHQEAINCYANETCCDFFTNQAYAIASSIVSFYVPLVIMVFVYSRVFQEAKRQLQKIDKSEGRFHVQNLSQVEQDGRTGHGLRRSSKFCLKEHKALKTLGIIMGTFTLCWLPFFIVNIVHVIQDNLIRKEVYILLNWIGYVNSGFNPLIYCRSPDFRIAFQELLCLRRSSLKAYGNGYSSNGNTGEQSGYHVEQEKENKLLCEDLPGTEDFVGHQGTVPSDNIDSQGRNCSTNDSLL
# ALR inh – inhibitors of human sulfhydryl oxidase ALR. P55789. purified ALR, DTT oxidation, H2O2 HRP-luminol luminescence. inhibition, % (test concentration not listed). 290,000 tested, 3.8% active. AID 485317;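 active means mean and each replicate at 75% or more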;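 further: stock transfer was 7.5 nL into about 7.5 µL; 0% = neutral wells and 100% = wells with inactivated enzyme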
# Target sequence (P55789 whole entry, looked up): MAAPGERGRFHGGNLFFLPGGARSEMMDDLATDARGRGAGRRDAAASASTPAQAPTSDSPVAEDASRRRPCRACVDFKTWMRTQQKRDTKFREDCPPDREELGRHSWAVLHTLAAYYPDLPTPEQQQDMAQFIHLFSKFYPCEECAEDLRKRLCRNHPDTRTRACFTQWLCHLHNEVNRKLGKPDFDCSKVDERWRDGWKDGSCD
# Calb FLC – C. albicans growth modulation with fluconazole; C. albicans CaCi-2 (fluconazole-resistant clinical isolate) + fluconazole, Alamar Blue growth, 48 h; growth inhibition, % (test concentration not listed); 300,000 tested, 0.57% active; AID 1979;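 active means most replicates above 75%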;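 further: all wells also contain fluconazole at 8 µg/ml as a sub-toxic cotreatment; 0% = median of DMSO wells and 100% = median of geldanamycin control wells; wells of about 8 µL received 7.5 nL stock; the first replicate is given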
# T cruzi inh – blocks replication of Trypanosoma cruzi | T. cruzi beta-gal in NIH3T3, luminescence, 90 h | 300,000 tested, 1.4% active | inhibition, % (test concentration not listed);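 active means mean inhibition across valid replicates above about 55%, limit read from the data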;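 further: signal also drops with host cell toxicity which is not excluded here; 0% = plate median of DMSO wells and 100% = zero luminescence signal; higher percent means less beta-gal luminescence so fewer parasites; stock transfer was 50 nL into about 50 µL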
# LANA-H2A inh – blocks KSHV LANA binding to histone H2A/H2B. Q9QR71. cell-free LANA-H2A/H2B peptide, fluorescence polarization. inhibition, % (no concentration beside the values). 320,000 tested, 0.6% active. AID 2629; in the data active means inhibition mostly above about 10%, no sharp cut-off; inactive means mostly below about 6.7%;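 further: stock transfer was 7.5 nL into about 10 µL; 0% = median of vehicle wells and 100% = median of positive control wells; one replicate is shown; the record names a cut of 25% in any replicate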
# Beta cell apopt – blocks beta cell apoptosis; protection from apoptosis, % (test concentration not listed); 300,000 tested, 0.8% active; INS-1E cytokine-induced death, ATP luminescence, 48 h; percent of positive-control rescue, neutral wells zero;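 active means all replicates at 75% or more, or half of them and the mean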;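 further: 0% = cytokine-treated negative control wells and 100% = positive control rescue; higher means more ATP so stronger rescue from cytokine killing; wells of about 40 µL received 100 nL stock; the first replicate is given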
# rRNA inh HTS OD600 – recorded beside rRNA inh HTS, whose call it bears; OD600 change, %; measured here: OD600 growth;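 optical density of the mix in the first replicate; 0 = DMSO median and -100 = no signal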
# rRNA inh HTS RFP – also measured in rRNA inh HTS; calls as there; RFP signal change, %; measured here: RFP humanized mutant strains;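 first replicate; 0 = DMSO median and -100 = no signal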
# Active calls of the source: *; / = no result given. An excerpt; rates above refer to the full screens.
mol,A1 inh,rRNA inh HTS,rRNA inh HTS OD600,rRNA inh HTS RFP,B2AR ag,ALR inh,Calb FLC,T cruzi inh,LANA-H2A inh,Beta cell apopt
O=C(Oc1c(Cl)cc(Cl)c2cccnc12)N1CCCCC1,-0.3,/,/,/,0,-3,20,-12,-0.8,1
Cc1ccc2sc(N(CCCN(C)C)C(=O)c3nc4ccccc4s3)nc2c1C,1.8,2,-7,5.1,-2,-6,-7,50,3.1,-8
COC(=O)c1ccc(NC(=O)N2CCCC(C(=O)c3ccccc3OC)C2)cc1 (stereo not drawn),-0.6,-13,-16,1.2,2,7,-15,15,3.5,8
O=C(CSc1nnc(CNC(=O)c2cccs2)o1)NCc1ccc(F)cc1,-0.3,/,/,/,-3,-10,-3,-6,-5.6,-9
COC1=C(Nc2ccc(O)cc2)C(=O)c2ccccc2C1=O,-1.0,-37,-46,-15,-4,99*,42,-27,0.5,52
CCc1nn(C)c(-c2n[nH]c(=S)n2N)c1Cl,0.8,/,/,/,1,91*,-7,-20,3.6,-2
CC(C)(C)c1ccc(COC(=O)CN2C(=O)NC3(CCCC3)C2=O)cc1,0.0,-1,3,-2.6,12,-4,0,13,1.5,-2
COc1ccc([N+](=O)[O-])cc1NC(=S)Nc1ccccc1,0.0,/,/,/,-1,/,1,-6,1.7,-9
CCOC(=O)C1=C(O)CSC1=Nc1ccc(Cl)cc1,0.8,/,/,/,4,-1,4,4,7.5,1
Cc1ccc(S(=O)(=O)NC23CC4CC(CC(C4)C2)C3)cc1,1.7,-52,-76,-22,0,-6,/,/,-2.3,4
COc1cccc(NC(=O)CN2C(=O)NC(C)(CCC(C)C)C2=O)c1 (stereo not drawn),-0.3,-7,-9,-0.2,-1,-5,15,-1,5.0,-3
CCC(C)NC(=S)N(Cc1cc2cc(C)ccc2n2nnnc12)CC(C)(C)NC(C)C (stereo not drawn),0.8,10,17,2.3,26,-2,-48,7,3.9,4
CCOC(=O)c1c(C)n(C)c2ccc(OCC(O)CN3C(=O)c4ccccc4S3(=O)=O)cc12 (stereo not drawn),0.3,/,/,/,10,-6,-9,/,-1.7,2
CCN(CC)CCNc1ncnc2c1sc1nc(N3CCCC3)c3c(c12)CC(C)(C)OC3,-0.1,-52,-76,-8.5,65*,/,1,61*,6.0,3
CCOC(=O)C1CCCN(C(=O)CN2C(=O)COc3ccc(C(C)(C)C)cc32)C1 (stereo not drawn),0.2,-26,-31,-3.4,-1,3,12,6,0.4,1
CC(C)(C)N(Cc1cc2ccccc2[nH]c1=O)C(=O)c1cccnc1,0.2,/,/,/,5,-4,-6,-6,-1.2,-5
CC1Oc2ccccc2C=C1/C=N/NC(=O)c1ccccc1 (stereo not drawn),-2.0,/,/,/,1,-2,20,-3,0.3,2
CC(=O)Nc1ccc(NC(=O)Nc2ccc(C)c(C)c2)cc1,-0.6,16,13,2.0,9,0,-16,0,3.7,-2
COc1ccccc1CN1CC(C(=O)NC2CCOCC2)CCC1=O (stereo not drawn),0.8,12,9,1.4,-2,-1,-9,2,-5.3,-5
Cc1ccc(OCC(=O)N(Cc2ccccc2)C(C)(C)C)c([N+](=O)[O-])n1,-0.1,/,/,/,-11,5,5,-4,5.6,-1

# Single records, as listed above. Order of screens: A1 inh | rRNA inh HTS | rRNA inh HTS OD600 | rRNA inh HTS RFP | B2AR ag | ALR inh | Calb FLC | T cruzi inh | LANA-H2A inh | Beta cell apopt
# CCOC(=O)c1c(C)n(C)c2ccc(OCC(O)CN3C(=O)c4ccccc4S3(=O)=O)cc12 (stereo not drawn) reads 0.3 | / | / | / | 10 | -6 | -9 | / | -1.7 | 2
# COC(=O)c1ccc(NC(=O)N2CCCC(C(=O)c3ccccc3OC)C2)cc1 (stereo not drawn) reads -0.6 | -13 | -16 | 1.2 | 2 | 7 | -15 | 15 | 3.5 | 8

# The list continues:
mol,A1 inh,rRNA inh HTS,rRNA inh HTS OD600,rRNA inh HTS RFP,B2AR ag,ALR inh,Calb FLC,T cruzi inh,LANA-H2A inh,Beta cell apopt
COc1cccc(C(=O)NCCS(=O)(=O)NCc2ccco2)c1,-0.5,7,12,-1.5,8,-6,-3,-10,-1.4,2
O=C(Nc1ccc(NC(=O)c2cc3ccccc3o2)cc1)c1ccc2c(c1)OCCO2,-0.6,7,7,-0.2,1,/,36,3,-5.6,-8
CCCc1cc(=O)oc2cc(OCC(=O)NCCc3c[nH]c4ccccc34)ccc12,0.0,/,/,/,1,-3,-5,17,-1.7,35
Cc1cccc(C(OC(=O)c2ccco2)C(=O)NCc2ccccc2)n1 (stereo not drawn),-0.3,/,/,/,3,-2,-23,-8,4.6,-2
N#Cc1ccccc1OCC(=O)N1CCc2ccccc2C1,0.0,-2,-19,-4.9,-17,-17,-8,-18,-0.3,-3
CCN(CC(=O)NCc1cccs1)C(=O)c1ccccc1Cl,1.0,-3,1,-0.8,8,-1,-5,3,2.5,-1
COc1ccc(/C=N/N2CCOCC2)cc1O,-0.4,/,/,/,5,98*,-3,-14,3.3,-2
CCCCOc1ccc(/C(N)=N/O)cc1,-0.2,16,9,0.3,-2,99*,4,-19,-1.1,2
COc1cc(/C=C(\C#N)C(N)=O)ccc1OS(=O)(=O)c1ccc(C)cc1,-0.4,-24*,-18*,3.6*,6,/,-1,5,/,1
CCN(C(=O)COC(=O)c1ccccc1NC(=O)c1ccco1)C1CCS(=O)(=O)C1 (stereo not drawn),0.8,4,10,-1.2,2,1,24,-11,-3.9,-2
Cc1cc(Cn2nc(-c3ccccc3)cc2C(=O)NCc2cccc(Br)c2)on1,1.6,-4,-1,-1.8,3,-3,-14,-4,0.4,0
CCN1CCN(CCC(=O)Nc2ccc3c(c2)OCO3)CC1,-0.1,/,/,/,8,-10,-4,-1,-0.3,-12
Cc1ccc(NC(=S)Nc2ccc3nc(-c4ccccn4)c(-c4ccccn4)nc3c2)cc1C,0.0,/,/,/,10,-19,/,/,3.7,2
Cc1ccccc1C1CC(c2ccc(F)cc2)Nc2nc(N)nn21 (stereo not drawn),0.3,1,10,-1.1,9,1,3,28,2.5,-1
COc1ccc(NS(=O)(=O)c2cc(NC(=O)c3cc(F)c(F)c(F)c3F)ccc2N2CCCC2)cc1,0.1,5,6,4.6,-6,/,-11,38,-2.1,0
Cc1ccc(Nc2nc3ccccc3nc2-n2nc(C)cc2C)cc1,-0.6,4,6,-3.2,-10,/,-4,3,-3.6,1
Cc1csc(-c2cnn(-c3ccccc3)c2NC(=O)c2ccc(C(F)(F)F)cc2)n1,-0.8,/,/,/,3,-1,-3,2,-0.3,-1
COc1ccc(N(C(=O)c2ccco2)S(=O)(=O)c2cccs2)cc1,0.1,/,/,/,5,-3,9,-6,3.7,0
CN(C(=O)CSC(=O)c1ccccc1)c1ccccc1,0.3,-2,4,2.4,11,1,-7,-17,0.2,-5
NCCNC(=O)c1ncsc1-c1cccc(F)c1,0.5,5,10,-0.6,3,-3,8,0,4.2,-3

# Nothing new here: an excerpt of the list.
mol,A1 inh,rRNA inh HTS,rRNA inh HTS OD600,rRNA inh HTS RFP,B2AR ag,ALR inh,Calb FLC,T cruzi inh,LANA-H2A inh,Beta cell apopt
CCN(CC(=O)NCc1cccs1)C(=O)c1ccccc1Cl,1.0,-3,1,-0.8,8,-1,-5,3,2.5,-1
COc1ccc(/C=N/N2CCOCC2)cc1O,-0.4,/,/,/,5,98*,-3,-14,3.3,-2
CCCCOc1ccc(/C(N)=N/O)cc1,-0.2,16,9,0.3,-2,99*,4,-19,-1.1,2
COc1cc(/C=C(\C#N)C(N)=O)ccc1OS(=O)(=O)c1ccc(C)cc1,-0.4,-24*,-18*,3.6*,6,/,-1,5,/,1
CCN(C(=O)COC(=O)c1ccccc1NC(=O)c1ccco1)C1CCS(=O)(=O)C1 (stereo not drawn),0.8,4,10,-1.2,2,1,24,-11,-3.9,-2
Cc1cc(Cn2nc(-c3ccccc3)cc2C(=O)NCc2cccc(Br)c2)on1,1.6,-4,-1,-1.8,3,-3,-14,-4,0.4,0
CCN1CCN(CCC(=O)Nc2ccc3c(c2)OCO3)CC1,-0.1,/,/,/,8,-10,-4,-1,-0.3,-12
Cc1ccc(NC(=S)Nc2ccc3nc(-c4ccccn4)c(-c4ccccn4)nc3c2)cc1C,0.0,/,/,/,10,-19,/,/,3.7,2
Cc1ccccc1C1CC(c2ccc(F)cc2)Nc2nc(N)nn21 (stereo not drawn),0.3,1,10,-1.1,9,1,3,28,2.5,-1

# The listing continues:
mol,A1 inh,rRNA inh HTS,rRNA inh HTS OD600,rRNA inh HTS RFP,B2AR ag,ALR inh,Calb FLC,T cruzi inh,LANA-H2A inh,Beta cell apopt
O=C(NCc1ccco1)c1cc(-c2ccccn2)nc2ccccc12,-0.1,/,/,/,-10,-3,2,-1,5.5,3
Nc1ccc(C(=O)N2N=C(c3ccccc3)CC2(O)C(F)(F)F)cc1 (stereo not drawn),-0.8,-5,-7,-3.4,0,-5,-10,-1,3.1,-1
Cc1ccc(/C=N/NC(=O)c2cccs2)o1,-1.9,7,7,3.9,32,4,5,-27,-6.9,-1
CCN1CCN(Cc2c(C(=O)N/N=C(\C)c3ccc(Cl)c(Cl)c3)nnn2-c2nonc2N)CC1,0.3,/,/,/,/,/,3,1,-5.6,-2
CCOc1cc(/C=N/Nc2nc(N3CCCCC3)nc(N3CCCCC3)n2)ccc1OC(=O)c1ccco1,1.0,9,14,-0.4,7,-4,-7,24,3.8,-4
Cc1ccc(-n2c(C)cc(/C=N/NC(=O)c3ccncc3)c2C)cc1C,-0.2,1,-3,-14,6,/,5,4,-1.2,-4
S=C(Nc1ccc2nsnc2c1)NC1CCCCC1,-0.6,-44*,-35*,-10*,3,-16,-16,8,0.2,-7
CCOC(=O)C1(N(CC)CC)Sc2cc(C)ccc2NC1=O (stereo not drawn),-0.4,/,/,/,-5,2,21,-4,0.2,8
COC(=O)c1ccccc1NC(=O)[C@@H]1CCC(=O)N1C1OC(=O)c2c1ccc(OC)c2OC (stereo partly drawn),0.3,/,/,/,1,/,-1,-15,-1.5,-3
COC(=O)c1c(-c2ccc(F)cc2)noc1N,-0.4,10,9,-3.5,1,5,2,4,-3.0,-8
CCN(CC)CCCNC(=O)C1CCC(CNS(=O)(=O)c2c(C)cc(C)cc2C)CC1 (stereo not drawn),0.6,5,3,-9.2,3,/,-10,51,7.4,/
CC1CCCN(C(=O)CCS(=O)(=O)c2cc3c(cc2Cl)NC(=O)CO3)C1 (stereo not drawn),-0.2,5,4,-5.9,-11,-10,0,-16,5.4,0
CCN(CC)C(=O)c1[nH]cnc1C(=O)Nc1ccc(OC)cc1,0.5,6,5,-2.2,14,-11,13,-5,0.9,-3
CC(=O)Nc1nc(C)c(C(C)C)s1,0.6,9,10,1.5,-5,-6,4,-12,2.3,-3
COC(=O)C1CCN(c2c([N+](=O)[O-])cc(C(F)(F)F)cc2[N+](=O)[O-])CC1,0.7,/,/,/,-9,6,-2,-8,-6.5,-6
Cc1nc2nc(-c3ccc(Cl)cc3)nn2c(C)c1Cl,-0.2,/,/,/,/,-7,-13,-19,-5.5,2
Cc1noc(NS(=O)(=O)c2ccc(N3C(=O)c4ccccc4C3=O)cc2)c1C,1.2,/,/,/,-6,14,-2,-1,0.2,2
COc1ccc(C)cc1S(=O)(=O)N1CCCC(C(=O)N2CCN(c3ccccc3)CC2)C1 (stereo not drawn),-0.3,-6,-29,-0.7,-17,23,-5,10,-49,/

# Assay outcomes from PubChem.
